Vaccinia mCherry: vaccinia inhibition (mCherry reporter); 0.63% of 310,000 active; Potency, µM (doses to about 36.5 µM), without a hit: at the highest dose activity change, negative = inhibition, actives largely listed as inhibitors; Vaccinia virus mCherry reporter infection, fluorescence; about a quarter of the inactives have no number; active = well fitted inhibition curve with a large enough effect; inconclusive = small, poorly fitted or top-dose-only effect; inactive = no such curve, though single readings can be large or run the other way; tested in A549 cells; note: nearly all actives have a fitted effect of over 35% in size; inactives centre near -10
Vaccinia Venus: inhibitors of vaccinia virus (Venus reporter); Vaccinia virus Venus reporter expression, fluorescence; Potency, µM (highest dose often 36.5 µM), for the others: top-dose activity change, negative = inhibition, most hits filed as inhibitors; 0.46% of 330,000 active; AID 720580; active means well fitted inhibition curve with a large enough effect; inconclusive means small, poorly fitted or top-dose-only effect; inactive means no such curve, though single readings can be large or run the other way; tested in A549 cells; note: nearly all actives have a fitted effect of over 30% in size; inactives centre near -10
* hit, by the source's call; i = inactive; ? = inconclusive; . = not tested or not shown; & = joins results of further samples; [ ] = remark or other dose. % is set by controls: 0 for no effect and ±100 for the full control effect; potency is the fitted concentration of half-maximal effect. This is a random part of the collection. Share with any hit: about 0.87%.

SMILES	Vaccinia mCherry	Vaccinia Venus
Cc1cc(C(=O)COc2ccccc2C(N)=O)c(C)n1CC1CCCO1 (configuration not stated)	-11%	-17%
Cc1cccc(NC(=O)c2ncn3c2C(=O)NC[C@H]3C)c1	?	-29%
COc1ccc(CN(C)C(=O)c2cc(-c3ccccc3)nc3ccc(C)cc23)c(OC)c1	i	?
COc1ccc(C(=O)CN2C(=O)NC3(CCCc4ccccc43)C2=O)c(OC)c1 (configuration not stated)	i	-13%
CC1(C(=O)NCCC#N)CCN1C(=O)C1(c2ccccc2)CC1 (configuration not stated)	-9%	-5%
O=C(Nc1ccc(Cl)cc1)Nc1nnc(/C=C/c2ccccc2)s1	-23%	-15%
Cc1cc(C(=O)N/N=C/c2c(C)n(C)c3ccccc23)n[nH]1	i	-16%
CC1(C)CC(Nc2ccc(Nc3ccccc3)cc2)CC(C)(C)N1	-7%	-3%
CC(CNC(=O)c1nnc(Cc2ccc(F)cc2)o1)c1ccccc1 (configuration not stated)	-14%	-17%
Cc1ccc(CNC(=O)c2cn(C)c3ccc(S(=O)(=O)N4CCC(C)CC4)cc3c2=O)cc1	-25%	-17%
Cc1cccc(C2CC(c3ccc(F)cc3)Nc3nc(N)nn32)c1 (configuration not stated)	-8%	-9%
COc1cccc(/C=N/NC(=O)c2c(-c3ccccc3)noc2C)c1O	10µM*	?
OCC[C@H]1C[C@@H](O)[C@H](O)[C@]2(OCCCc3ccccc32)O1	-25%	-14%
Cc1ccc2cc(CCNC(=O)c3cccs3)c(=O)[nH]c2c1C	i	-26%
COCCNC(=O)CCCCCN1C(=O)CCC1=O	.	-2%
CN1CCN(S(=O)(=O)c2ccc(Cl)cc2)CC1	i	-10%
CCN(CC)CCOc1ccc(/C(=C(/Cl)c2ccccc2)c2ccccc2)cc1	-20%&-13%	-28%&-27%
CCC(c1nc2ccccc2[nH]1)n1c(=O)c(-c2ccccc2)nc2ccccc21 (configuration not stated)	-13%	18%
COc1cn(-c2ccccc2)nc1C(=O)Nc1ccccc1	-3%	-5%
Nc1nc(-c2ccc(Cl)cc2Cl)cn1N	-2%	-2%

Quoted from the listing.
Result of O=C(Nc1ccc(Cl)cc1)Nc1nnc(/C=C/c2ccccc2)s1 under Vaccinia mCherry: -23%
Result of Nc1nc(-c2ccc(Cl)cc2Cl)cn1N under Vaccinia mCherry: -2%
Result of COCCNC(=O)CCCCCN1C(=O)CCC1=O under Vaccinia Venus: -2%

Continued:
SMILES	Vaccinia mCherry	Vaccinia Venus
COc1cccc(-n2c(CN3CCN(C)CC3)nc3ccc([N+](=O)[O-])cc3c2=O)c1	-21%	-19%
Cc1cccc(N2CCN(C(=O)c3ccc4c(c3)OCCO4)CC2C)c1 (configuration not stated)	i	-5%
Cc1ccccc1NC(=O)CN1CCC(C(=O)c2ccc3c(c2)OCCO3)CC1	-15%	-15%
Cc1c(C(=O)N2CCOCC2)sc2ncnc(N3CCc4ccccc4C3)c12	.	-22%
O=C1NNC(c2ccccc2)=N/C1=C\c1ccco1	i	-8%
[O]=[Sb]([OH])([OH])[c]1ccccc1	-16%	-14%
S=C(NCc1ccco1)N1CCN(C(c2ccccc2)c2ccccc2)CC1	-31%	-16%
CCOc1ccc(NC(=O)N2CCC(c3ccc(C)cc3)C2)cc1 (configuration not stated)	-14%	-15%
CCOC(=O)c1c(C)[nH]c(C(=O)COC(=O)/C=C/c2ccc(OC(F)F)cc2)c1C	i	-6%
CC(C)N1C(=O)c2ccccc2NC(=O)C1C(=O)NCc1ccccc1 (configuration not stated)	-14%	-22%
Cc1c(C)n(CCc2ccccc2)c2ncnc(NCCO)c12	i	-20%
Cc1cc2nnc(SCC(=O)Nc3ccc(F)c(Cl)c3)n2c2ccccc12	-5%	-5%
CCCCNC(=O)c1nn(-c2ccc(C)cc2)c(=O)c2c1c1ccccc1n2C	?	-26%
CN(CC(=O)Nc1ccc(Cl)c(Cl)c1)CC(=O)N1CCc2ccccc21	-23%	?
COC(=O)c1ccc(S(=O)(=O)NNC(=O)c2ccc(S(=O)(=O)N3CCCCC3)cc2)cc1	-1%	-15%
Cc1cc(O)c(/C=N/OCc2ccc(Cl)cc2Cl)c(=O)o1	-12%	-12%
COc1cccc(CNC(=O)C2CCN(Cc3cc4ccccc4n3Cc3ccccc3)CC2)c1OC	-25%	-11%
O=C(c1ccc2c(=O)n(Cc3ccc4c(c3)OCO4)c(=S)[nH]c2c1)N1CCN(Cc2ccccc2)CC1	-18%	-17%
CC(=O)c1ccc(/C=C/c2nc3ccccc3n2C)o1	-10%	-4%
COc1ccc(C(CC(=O)Nc2cccc(C)c2C)N2Cc3ccccc3C2=O)cc1 (configuration not stated)	-15%	-13%

An excerpt from above in order of length of the SMILES, ascending:
SMILES	Vaccinia mCherry	Vaccinia Venus
CC(=O)c1ccc(/C=C/c2nc3ccccc3n2C)o1	-10%	-4%
Cc1cc(O)c(/C=N/OCc2ccc(Cl)cc2Cl)c(=O)o1	-12%	-12%
S=C(NCc1ccco1)N1CCN(C(c2ccccc2)c2ccccc2)CC1	-31%	-16%
Cc1c(C(=O)N2CCOCC2)sc2ncnc(N3CCc4ccccc4C3)c12	.	-22%
Cc1ccccc1NC(=O)CN1CCC(C(=O)c2ccc3c(c2)OCCO3)CC1	-15%	-15%
COc1cccc(-n2c(CN3CCN(C)CC3)nc3ccc([N+](=O)[O-])cc3c2=O)c1	-21%	-19%

(cont.)
SMILES	Vaccinia mCherry	Vaccinia Venus
COc1ccc(C(C)NC(=O)c2ccncc2)cc1 (configuration not stated)	-11%	1%
Cn1c(N)c(C(=O)COc2ccc(C#N)cc2)c(=O)n(C)c1=O	i	0%
CCCCOc1ccc(CNC(=O)c2cnc3sc(N4CCOCC4)nn3c2=O)cc1	-11%	-6%
COC(=O)c1cc(C(=O)Nc2ccc(S(N)(=O)=O)cc2)cc([N+](=O)[O-])c1	-10%	-4%
Cc1nn2c(=O)cc(COC(=O)c3ccccc3NC(=O)c3ccccc3C)nc2s1	-5%	-2%
COc1ccc(/C=C(\NC(=O)c2ccc(OC)c(OC)c2)C(=O)N2CCN(C)CC2)cc1	?	-9%
O=C(Nc1ccccc1N1CCOCC1)c1cccnc1	-3%	-10%
CCCCC[C@@H](C)N1C[C@@H](COCc2ccccc2)Oc2cc(N3CC[C@H](N(C)C)C3)ccc2S1(=O)=O	-10%	-9%
CCOc1ccc(C(=O)OCC(=O)c2c(N)n(C)c(=O)n(C)c2=O)cc1OCC	.	-15%
Cc1onc(-c2ccccc2)c1C(=O)Nc1ccc(S(=O)(=O)N2CCOCC2)cc1	i	-17%
Cc1cccc(Nc2c([N+](=O)[O-])cc(C(=O)N3CC(=O)Nc4ccccc43)cc2[N+](=O)[O-])c1	-8%	-18%
c1ccc(-c2cc3nc(NCC4CC4)nc(NCC4CCCCC4)c3s2)cc1	-24%	?
N#CCCn1c(C2CCCCC2)nc2ccccc21	.	-15%
COc1ccc(C2CC(=O)c3cnc(NC(=O)c4ccccc4OC)nc3C2)c(OC)c1 (configuration not stated)	.	?
Cc1cc(C)cc(-n2c(C)cc(C(=O)C(=O)Nc3ccccc3F)c2C)c1	-4%	-3%
Cn1c(=NC(=O)c2ccc(F)cc2)sc2cc(Br)ccc21	i	-2%
Cc1ccc(N/C=C2\C(=O)N(c3ccc(F)cc3F)C(c3cccnc3)S2(=O)=O)cc1 (configuration not stated)	-6%	-11%
O=C(NCCC1CCCCN1S(=O)(=O)c1ccc(F)cc1)C(=O)NCc1cccnc1 (configuration not stated)	-11%	-13%
CCCn1c(-c2ccc(F)cc2)cnc1SCC(=O)O	-15%	-10%
CC(=O)Nc1c(O)nc(SCC(=O)Nc2nnc(SCc3ccccc3)s2)[nH]c1=O	i	-6%

Profiles, looked up by structure. Order of values: Vaccinia mCherry	Vaccinia Venus
CCCCOc1ccc(CNC(=O)c2cnc3sc(N4CCOCC4)nn3c2=O)cc1 is entered as -11%	-6%
Cc1cc(C)cc(-n2c(C)cc(C(=O)C(=O)Nc3ccccc3F)c2C)c1 is entered as -4%	-3%

Next compounds
SMILES	Vaccinia mCherry	Vaccinia Venus
NC(=O)C1CC(=O)N(c2ccc(OCC(=O)Nc3ccc(Cl)cc3)cc2)C1 (configuration not stated)	2%	1%
CSc1cc(C)c(OCC(=O)Nc2ccc(NC(C)=O)cc2)c(C)c1	-4%	-27%
COC(=O)Cc1ccc2sc(-c3ccccc3)nc2c1	-10%	-10%
CC(=O)Nc1ccc(N/C=C/C(=O)c2ccc(C)o2)cc1	-12%	-13%
COc1ccc(/C=C(\NC(=O)c2ccccc2)C(=O)N/N=C/c2ccncc2)cc1	i	-7%
O=C(CSc1ncn[nH]1)Nc1ccccc1C(=O)O	.	-5%
CC(C)(C)OC(=O)N(Cc1ccccc1)Cc1ccccc1OCc1ccc(NC(=O)C2CCC2)cc1	?	-10%
C[C@H](NC(=O)[C@H]1N2C(=O)c3ccccc3C2SC1(C)C)C(=O)N1CCC[C@H]1CO (some centres not stated)	-6%	-2%
Cc1ccc(-c2nc(NC(=O)CSc3cc(C)c4ccccc4n3)ns2)cc1	?	-29%
CCOC(=O)C(NC(C)=O)(Nc1ccc(S(=O)(=O)Nc2cc(C)on2)cc1)C(F)(F)F (configuration not stated)	.	-12%
Cc1ccc(NC(=O)N2CCCC2C(=O)Nc2c(C)cc(C)cc2C)cc1 (configuration not stated)	-4%	1%
Cc1c([N+](=O)[O-])c([N+](=O)[O-])nn1CC(=O)NCCc1ccccc1	-14%	-9%
Cc1cc(SC(C)C(=O)Nc2ncc(Cl)cc2Cl)nc2ccccc12 (configuration not stated)	-10%	-4%
COc1ccc(NC(=O)COC(=O)c2cccn2C)cc1S(=O)(=O)N1CCCCC1	i	-13%
O=S(=O)(NC1=NCCC1)c1ccc(F)cc1F	-15%	-6%
C=CCCC(=O)N1C[C@H]2CON(C)[C@H]2C[C@H]1c1cccc(N2CCOCC2)c1	i	9%
N#Cc1ccccc1NC(=O)COC(=O)CCc1ccccc1	i	-4%
COc1ccccc1N1CCN(C2CCCN(Cc3ccc(Cl)cc3)C2)CC1 (configuration not stated)	?	-23%
CCO[C@H]1OC(C(=O)O)=C[C@@H](C)[C@@H]1CCCO	i	-12%
CN(N)c1nc(N2CCCC2)nc(N2CCCC2)n1	-18%	-12%
O=c1cc(/C=C/c2ccccc2)oc2ccccc12	-28%	-19%
CN1CCN(c2ncnc3ccc(-c4ccccc4C#N)cc23)CC1	-4%	-20%
CCC(C)NC(=O)N[C@@H](Cc1ccccc1)C(=O)O (some centres not stated)	i	-18%
CCCCNC(=O)C1(N2C(=O)c3ccccc3C2=O)CCCC1	-11%	-10%
CC(C)c1ccc(C2c3[nH]c4ccccc4c3C[C@H]3C(=O)N(c4ccccc4C(=O)N4CCC(C(=O)O)CC4)C(=O)N23)cc1 (some centres not stated)	-2%	0%
CCOc1c(C)cc(S(=O)(=O)NCc2ccccn2)c(C)c1C	-18%	-9%
CSc1cccc(NC(=O)CSc2ncccc2C(=O)Oc2cccc([N+](=O)[O-])c2)c1	-1%	-18%
CN(C)c1cc(NC(=O)CNC(C)(C)CC(C)(C)C)c2ccccc2n1	-12%	-8%
O=C(COC(=O)c1ccc(S(=O)(=O)N2CCCC2)cc1)NCc1cccs1	i	3%
O=C(O)CC(Cc1ccc(Br)cc1)C(=O)O (configuration not stated)	-11%	-2%
CCOc1ccc(Oc2ccc(S(=O)(=O)N3CCOCC3)cc2NC(=O)C2=COCCO2)cc1	i	-17%
Cc1cccc(NC(=O)CN(C)S(=O)(=O)c2cccc3nsnc23)c1C	-16%	-6%
CC(=O)Nc1ccc(S(=O)(=O)Nc2cccc(NC(=O)c3ccco3)c2)cc1	-12%	3%
CC(C)c1ccc(NC(=O)Cn2nnc(C(=O)NCCc3ccccc3)c2N)cc1	-8%	-8%
CCOc1ccccc1C(=O)NC1(C(F)(F)F)C(=O)Nc2c1c(=O)[nH]c(=O)n2-c1ccc(F)cc1 (configuration not stated)	-3%	-2%
CC(CNC1CCCCC1)OC(=O)c1ccccc1 (configuration not stated)	-11%	-13%
Cc1ccc2c(c1)cc1c(=O)n(Cc3ccccc3Cl)nc(C)n12	-9%	-9%
CCCCCC(=O)NNC(=S)NC(C)=O	-6%	-12%
CCOC(=O)c1cc(-c2ccccc2)sc1NC(=S)Nc1cc(C)ccn1	.	-23%
CCOc1ccccc1NS(=O)(=O)c1c(C)[nH]c(C)c1C(=O)N1CCCCC1	-6%	-11%
CC(=O)N1CCN(CCN2C(C)=CC(=C(C#N)C#N)C=C2C)CC1	-14%	-11%
CCC1(c2ccccc2)SCC(c2ccccc2)=NC1=O (configuration not stated)	?	-9%
CC(C)CCNC(=O)c1csc2c1CCCCC2	i	-7%
CNC(=O)COc1ccc(Nc2nnc(C)c3ccccc23)cc1	-14%	-11%
CN(C(=O)CN1CCN(c2ccccc2F)CC1)C1CCCc2ccccc21 (configuration not stated)	?	9%
CC(C)NS(=O)(=O)c1ccc(OCC(=O)NCc2cccnc2)cc1	-10%	-19%
O=C(CSc1nc2ccccc2o1)c1ccc2c(c1)OCCO2	.	-7%
CNC(=O)Nc1ccc(Cn2cc(C(F)(F)F)ccc2=O)cc1	i	-7%
CC(OC(=O)c1cc(S(=O)(=O)N(C)C)ccc1N1CCCC1)C(=O)NCc1ccccc1 (configuration not stated)	-21%	-13%
CC1CCCN(C(=S)SCC(=O)O)C1 (configuration not stated)	-15%	-10%
O=C(CN1C(=O)NC2(CCc3ccccc3C2)C1=O)Nc1ccc(Cl)cc1F (configuration not stated)	-26%	-28%
CCOc1ccccc1CNC(=O)CN1C(=O)CSc2ccc(S(=O)(=O)N3CCOCC3)cc21	-2%[7.34 µM]	0%[7.34 µM]
CCOC(=O)Nc1sc(C(=O)N(C)C)c(C)c1C(=O)OCC	-24%[1.46 µM]	?
Cc1csc(-c2cccnc2)n1	-15%	-18%

Compound activity as filed in PubChem BioAssay.
